D2 ag: Beta-Arrestin HTS for Positive Allosteric Modulators of the Human D2 Dopamine Receptor: Agonists; DiscoveRx PathHunter D2 beta-arrestin, luminescence, 90 min; 100% = 57 uM dopamine signal; activation, % (no concentration beside the values); hit rate 0.084% among 360,000; in the data active = activation above about 40%; inconclusive = about 15% to 40%; inactive = below about 15%; further: compound concentration not given in the record; the text of the record calls up to 30% inactive
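DiscoveRx PathHunter D2 beta-arrestin cells (2,100/well) attached overnight, then compound-stimulated 90 min at 37 C in HBSS/10 mM HEPES/0.1% Tween-20 buffer; beta-galactosidase complementation read by luminescence after 1 h at ambient temperature. Dopamine 57 uM final (EC100) as control.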
Six1-Eya2 blk: qHTS Assay for Inhibitors of the Six1/Eya2 Interaction; hit rate 0.56% among 360,000; AID 651725, 2012; AlphaScreen GST-Six1/His-Eya2 binding, biochemical; active compounds read low; control for the full effect not named in the record; Homeobox protein SIX1 (Homo sapiens) + Protein phosphatase EYA2 (Homo sapiens), …; activity change, % (no concentration beside the values); in the data active = activity change below about -65%; inconclusive = about -30% to -65%; inactive = above about -30%; further: on the % scale 0 is the no-effect control and ±100 the full control effect
Target sequence (O00167 whole entry, looked up): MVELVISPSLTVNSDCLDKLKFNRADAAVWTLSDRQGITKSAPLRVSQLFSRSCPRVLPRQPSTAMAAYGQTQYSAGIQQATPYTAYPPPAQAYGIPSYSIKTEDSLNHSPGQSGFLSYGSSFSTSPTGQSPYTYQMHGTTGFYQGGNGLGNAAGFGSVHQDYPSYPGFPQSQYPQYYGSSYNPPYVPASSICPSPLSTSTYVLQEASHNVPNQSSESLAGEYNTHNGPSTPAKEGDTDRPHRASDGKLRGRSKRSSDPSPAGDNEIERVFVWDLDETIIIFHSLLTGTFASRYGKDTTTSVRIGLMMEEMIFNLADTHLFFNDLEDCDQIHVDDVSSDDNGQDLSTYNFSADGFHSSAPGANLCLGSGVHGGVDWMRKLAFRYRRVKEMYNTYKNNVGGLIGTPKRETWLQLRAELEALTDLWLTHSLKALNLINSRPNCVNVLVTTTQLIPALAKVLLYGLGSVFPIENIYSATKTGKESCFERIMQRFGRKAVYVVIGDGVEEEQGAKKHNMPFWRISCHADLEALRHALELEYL
Target sequence (Q15475 whole entry, looked up): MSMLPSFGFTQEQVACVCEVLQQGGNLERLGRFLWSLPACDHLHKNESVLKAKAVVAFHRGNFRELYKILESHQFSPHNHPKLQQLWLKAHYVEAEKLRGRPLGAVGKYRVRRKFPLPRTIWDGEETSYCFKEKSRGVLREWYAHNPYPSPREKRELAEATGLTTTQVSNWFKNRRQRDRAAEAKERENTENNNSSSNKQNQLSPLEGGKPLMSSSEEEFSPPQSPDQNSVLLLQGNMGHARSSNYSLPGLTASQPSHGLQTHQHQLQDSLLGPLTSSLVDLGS
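AlphaScreen luminescence read after one hour at 37 °C in darkness. Pin-transferred compounds met GST-Six1 and His-Eya2 protein (5X stock 250 nM/500 nM) plus glutathione donor and Ni-chelate acceptor beads (5X, 50 ug/mL).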
TRPML1 blocker: qHTS for Inhibitors of the Human Mucolipin Transient Receptor Potential 1 (TRPML1); activity change, negative = inhibition, % (test concentration not listed); hit rate 0.02% among 390,000; TRPML1-inducible cells, Ca2+ dye fluorescence, FDSS; active compounds read low; inhibition of EC80 agonist-evoked calcium signal; Mucolipin-1 (Homo sapiens), Q9GZU1; AID 624415, 2012; in the data active means activity change below about -50%; inconclusive means about -30% to -50%; inactive means above about -30%;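 further: stimulus is agonist 54-4 at its EC80 concentration; on the % scale 0 is the no-effect control and ±100 the full control effect; compound concentration not given in the record; the text of the record puts the active cut at -80%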
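Calcium fluorescence in TRPML1-DL cells induced overnight with Tet: a 110 s read after compound pin addition, then a 110 s antagonist read after challenge with 54-4 at 4 uM final (EC80).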
PINK1 modulator: A Quantitative High throughput Screen to Identify Chemical Modulators of PINK1 Expression; hit rate 0.2% among 410,000; PINK1 immunofluorescence, high-content cytometry, 24 h; Potency, µM (highest dose often 76.6 µM), for inactives: at the top dose activation (PINK1 increase), hits mostly activators; active = well fitted activation curve with a large enough effect; inconclusive = small, poorly fitted or top-dose-only effect; inactive = flat fitted curve, though single readings scatter; cell line not stated here;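 further: potency means the concentration at half of the fitted maximal effect; % of control where 0% means no effect; nearly all actives have a fitted effect of over 65% in size; a mitochondrial uncoupler was the plate control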
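Decision-based qHTS: stable cells, 24 h exposure to five compound concentrations, CCCP as control. Fixed cells stained for PINK1 plus nuclear, mitochondrial and cell markers, cytometer read.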
TRPML1 agonist: qHTS for Agonists of the Human Mucolipin Transient Receptor Potential 1 (TRPML1); Mucolipin-1 (Homo sapiens), Q9GZU1; TRPML1-expressing cells, Ca2+ dye fluorescence, FDSS; host cell line not named in the record; reference of the full effect not given here; activation, % (no concentration beside the values); hit rate 0.12% among 410,000; AID 624414, 2012; in the data active = activation above about 50%; inconclusive = about 30% to 50%; inactive = below about 30%; further: 0% is about no effect; the text of the record puts the active cut at 80%
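Agonist activity was taken from a 110 s kinetic Ca2+ dye read on the FDSS after pinning compounds onto TRPML1-DL cells. The cells were seeded at 1,500/well with Tet inducer, incubated about 16 h, then dye-loaded at room temperature.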
CtBP-E1A blk: qHTS Assay for Inhibitors of the CtBP/E1A Interaction; CtBP / adenovirus E1A interaction (AlphaScreen); AlphaScreen GST-E1A/His-CtBP binding, 1536-well; active compounds read low; control for the full effect not named in the record; activity change, % (concentration not given with the values); hit rate 0.49% among 340,000; in the data active means activity change below about -65%; inconclusive means about -30% to -65%; inactive means above about -30%; further: on the % scale 0 is the no-effect control and ±100 the full control effect
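Steps: dispense buffer (Tris pH 8.0, NaCl 300 mM, TCEP 1 mM, BSA, Tween 20); add 5X protein mix (GST-E1A, His-CtBP, 125 nM each); pin 23 nL compound; 2 h at 37 °C, dark; add 5X beads (50 ug/mL); 1 h; read.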
An asterisk follows results filed as active; ? = inconclusive; . = not tested or not shown; & = joins results of further samples; [ ] = remark or other dose.

No.	smiles	D2 ag	Six1-Eya2 blk	TRPML1 blocker	PINK1 modulator	TRPML1 agonist	CtBP-E1A blk
1	O=C(Nc1ccc(-c2cn3ccsc3n2)cc1)c1ccc(F)c(S(=O)(=O)N2CCOCC2)c1	3.6	?	-12	2.9%	0.8	?
2	Cc1ccc(N/N=C/c2ccncc2)cc1	-13	-11	.	0.5%	.	-16
3	COc1ccc(NC(=O)CN(c2ccc(C)cc2)S(=O)(=O)c2cccs2)cc1	.	.	-9	4.6%	0.6	.
4	Cn1c(N2CCCC2)nc2c1c(=O)n(Cc1cccc(F)c1)c(=O)n2C	0.2	-7	-1	1.1%[38.3 µM]	-0.4	-13
5	Cc1ccccc1NC(=O)N1C2CCCC1CC(NC(=O)C1CC1)C2 (configuration not stated)	-1.5	5	0	-0.4%	-0.1	0
6	N#Cc1c([N+](=O)[O-])cc([N+](=O)[O-])cc1S(=O)(=O)Cc1ccccc1	?	?	7	-3.5%	5.3	-14
7	CCOC(=O)CC(=O)Nc1c(C)cc(C)cc1C	-0.4	0	11	0.0%[38.3 µM]	0.9	-10
8	Cc1cc2ccccc2nc1SCC(=O)NC1CCCCC1	0.0	1	-7	0.4%	1.9	11
9	O=C(N/N=C/C=C/c1ccccc1)c1n[nH]c2c1CCC2	-0.2	-3	15	13%	4.6	-1
10	NC(=O)C1CN(C(=O)c2cccc(S(=O)(=O)N3CCc4ccccc43)c2)c2ccccc2O1 (configuration not stated)	-3.0	2	12	7.3%	1.1	.
11	O=C(c1ccccc1Sc1ccc([N+](=O)[O-])cc1)N1CCCCC1	-0.5	4	-5	-0.9%	-0.3	1
12	N#CCC(=O)Nc1ccc(C(=O)OCC(=O)Nc2ccccc2-c2ccccc2)cc1	-1.5	0	-8	-0.5%	-0.1	2

New compounds follow
No.	smiles	D2 ag	Six1-Eya2 blk	TRPML1 blocker	PINK1 modulator	TRPML1 agonist	CtBP-E1A blk
13	O=C(Cn1cnc2ccccc2c1=O)NNC(=O)c1ccccc1F	-4.0	-7	-4	1.3%	0.7	2
14	CC1(C)NC(=O)N(CC(O)COc2cccc(F)c2)C1=O (configuration not stated)	-2.8	-2	-9	3.9%	0.3	7
15	CS(=O)(=O)N(CC(=O)NCc1ccco1)c1ccc(Cl)cc1Cl	-1.6	-7	-6	-1.6%	2.0	-3
16	O=C(CC(=O)N/N=C/c1c(F)cccc1Cl)NCc1ccccc1	1.1	2	-15	3.0%	0.3	-10
17	Cc1ccc(NC(=O)NC(=O)COc2ccc(Cl)cc2Cl)c(C)c1	-3.5	0	-14	2.3%	-0.7	0
18	Cc1ccc(NC(=O)c2ccc3c(O)c(S(=O)(=O)c4ccccc4)c(=O)[nH]c3c2)cc1Cl	.	.	46	-1.2%	0.8	.
19	COc1ccc(N(Cc2cc3cc(OC)ccc3[nH]c2=O)S(=O)(=O)c2ccc(NC(C)=O)cc2)cc1	1.9	-7	-6	2.0%	-0.1	.
20	O=C(CN1C(=O)NC2(CCCCCC2)C1=O)Nc1ccc([N+](=O)[O-])cc1	-4.6	-8	-6	0.8%	1.6	-6
21	COCc1cc(C)nc(OCC(=O)N/N=C\c2cc(C)n(-c3cccc(C(F)(F)F)c3)c2C)c1C#N	-4.6	-4	44	-1.3%	0.4	-3
22	O=C1c2[nH]nc(-c3ccccc3O)c2C(c2ccccc2F)N1Cc1cccnc1 (configuration not stated)	.	.	17	6.9%	-1.1	.
23	COC(=O)c1ccccc1NC(=O)Oc1ccc(F)cc1	-1.6	1	-24	0.9%[38.3 µM]	0.7	-6
24	COc1cccc(N2CCN(C(=O)C3CCN(S(=O)(=O)c4ccc5c(c4)oc(=O)n5C)CC3)CC2)c1	-2.0	-2	24&9	0.9%&0.8%	1.0&-0.6	0

2 of the compounds above, with one line to a screen.
8: Cc1cc2ccccc2nc1SCC(=O)NC1CCCCC1
17: Cc1ccc(NC(=O)NC(=O)COc2ccc(Cl)cc2Cl)c(C)c1

assay / compound,8,17
D2 ag,0.0,-3.5
Six1-Eya2 blk,1,0
TRPML1 blocker,-7,-14
PINK1 modulator,0.4%,2.3%
TRPML1 agonist,1.9,-0.7
CtBP-E1A blk,11,0

(more compounds)
No.	smiles	D2 ag	Six1-Eya2 blk	TRPML1 blocker	PINK1 modulator	TRPML1 agonist	CtBP-E1A blk
25	COCCN(C(=O)COC(=O)CCCOc1ccccc1)c1c(N)n(Cc2ccccc2)c(=O)[nH]c1=O	-3.9	9	4	-1.2%	0.7	-9
26	Cc1ccsc1C(=O)N(C)C1CCS(=O)(=O)C1 (configuration not stated)	-1.2	3	-5	0.3%	0.3	9
27	Cc1nc(SCc2ccc(Cl)cc2)ncc1C(=O)O	2.1	6	4	0.1%	0.0	25
28	Cc1cc(C)cc(N2C(=O)N(CC(=O)c3ccc(Br)cc3)c3ccccc3S2(=O)=O)c1	.	.	0	-0.5%	0.6	.
29	C=CCOC(=O)C1CC=CCC1C(=O)Oc1ccc(F)cc1F (configuration not stated)	-0.2	20	19	-0.8%[38.3 µM]	2.0	31
30	COc1cc([N+](=O)[O-])ccc1N	-3.9	1	-13	-0.7%	-0.7	0
31	O=C(/C=C/c1ccccc1)Nc1cccnc1	-0.9	-7	3	-0.4%	-0.1	.
32	Cc1cc(C)nc(NS(=O)(=O)c2ccc(N3C(=O)C4C5C=CC(C5)C4C3=O)cc2)n1 (configuration not stated)	-4.6	3	55	-0.4%	-1.0	9
33	CC(C)Sc1nc2ccccc2[nH]1	-10	-9	-7	2.9%	-0.1	12
34	CC(=O)N1CCCc2cc(S(=O)(=O)N3CCCC(C(=O)Nc4cc(C)ccc4C)C3)ccc21 (configuration not stated)	-1.6	-2	-5	-0.2%	-1.1	-6
35	CCOc1ccc(S(=O)(=O)n2cc(-c3ccccc3)c(N)n2)cc1	0.6	-2	6	25%[38.3 µM]	0.7	3
36	Cc1nc(N2CCCC2)c2c(C(=O)Nc3cccc(Cl)c3)c(C)oc2n1	.	.	43	-4.2%	2.7	.

Going on with the list:
No.	smiles	D2 ag	Six1-Eya2 blk	TRPML1 blocker	PINK1 modulator	TRPML1 agonist	CtBP-E1A blk
37	FC(F)(F)c1ccc(-n2ccnc2)nc1	2.5	7	2	-0.3%	0.5	0
38	Cn1c2ccccc2c2nn(-c3ccccc3)c(=O)cc21	1.5	-1	-14	2.5%[38.3 µM]	0.4	-1
39	CC12CN3CC(C)(CN(C1)C3c1ccccc1F)C2 (configuration not stated)	-5.0	-4	14	0.5%	1.0	-16
40	Clc1cccc(/C=N/Nc2nc(Cl)nc3ccccc23)c1	-2.7	?	-2	7.5%	0.6	?
41	CCn1cc(C(=O)NCc2ccccc2F)c(=O)c2ccc(C)nc21	-1.6	3	-16	-1.4%	-1.4	1
42	CC(=O)NNc1cc(N2CCOCC2)nc(N2CCOCC2)n1	-1.1	-4	-11	-0.4%	1.8	-3
43	COc1ccc2c(c1)c1nc3ccccc3nc1n2Cc1ccc(OC(C)C)c(OC)c1	0.3	9	14	5.2%	0.9	7
44	COc1cc(NC(=O)c2cccc(S(=O)(=O)N3CCCCC3)c2)cc(OC)c1OC	14	-26	-13	2.8%	-0.2	-11
45	COc1ccc(C(=S)N2CCCC2)cc1OC	-1.0	0	1	0.6%	-0.5	7
46	CCOC(=O)CNC(=O)c1cc2c(=O)oc3ccccc3c2s1	.	.	-10	4.5%	0.3	.
47	Cc1ccc2c(c1)C1(C(=O)N2C)N2CC3(C)CN1CC(C)(C2)C3=O (configuration not stated)	-2.3	0	-6	1.1%[38.3 µM]	-0.4	1
48	COc1ccc2c(CN3CCN(c4ccccc4OC)CC3)cc(=O)oc2c1	0.9	-8	9	0.6%	0.9	4

New compounds follow.
No.	smiles	D2 ag	Six1-Eya2 blk	TRPML1 blocker	PINK1 modulator	TRPML1 agonist	CtBP-E1A blk
49	COc1ccc(C(=O)COC(=O)CNC(=O)c2ccc(C)s2)c(OC)c1	0.7	-5	33	0.3%	-1.5	.
50	CCC(=O)Nn1c(C2CCC2)nc2ccccc2c1=O	-1.3	2	-11	1.8%	0.5	10
51	CC(=O)Nc1ccc(-n2nnnc2SCC(=O)Nc2cccc(NC(=O)c3ccco3)c2)cc1	-1.0	0	8	10%	1.9	-7
52	CCOc1ccccc1NC(=O)C1CCCCN1S(=O)(=O)c1ccccc1 (configuration not stated)	-6.4	4	65	2.1%	4.2	9
53	Nc1nc(OCC(F)(F)F)cc(Oc2ccccc2F)n1	-2.3	2	3	2.9%[38.3 µM]	1.6	3
54	COc1cc2c(cc1OC)C(c1ccccc1)NCC2 (configuration not stated)	2.2	7	-6	-0.6%	-0.2	7
55	CC(CNC(=O)Cn1ccc(N)nc1=O)c1ccccc1 (configuration not stated)	-4.1	-21	8	0.3%	-0.6	-19
56	N#C/C(=C\c1ccc(Cl)cc1Cl)c1n[nH]c(Cn2cncn2)n1	-2.4	-7	2	0.0%	-0.6	1
57	Cc1c(C(=O)N2CCN(c3ccccc3)CC2)oc2c1C(=O)CC(C)(C)C2	-1.3	-5	12	2.6%	0.0	2
58	CCOC(=O)C[C@H]1c2cc(F)ccc2S(=O)(=O)N1C1CCCC1	-3.7	0	8	0.5%	-0.6&-0.8	7
59	O=C1CCN(Cc2ccc(Cl)cc2Cl)C(=O)N1	1.0	12	17	0.6%	-0.3	6
60	OCC1(Cc2ccccc2)CCCN(C2CCCC2)C1 (configuration not stated)	-7.3	-2	-11	0.1%	-0.2	3

Additional records
No.	smiles	D2 ag	Six1-Eya2 blk	TRPML1 blocker	PINK1 modulator	TRPML1 agonist	CtBP-E1A blk
61	Cc1cc(C)c(C(O)c2ncc(-c3ccccc3F)[nH]2)c(C)c1 (configuration not stated)	-4.2	2	.	0.2%	-1.2	-5
62	CCOC(=O)c1cc(C#N)c(SCC(=O)O)[nH]c1=O	-3.7	-15	-8	1.0%	-0.3	0
63	Cc1ccc(NC(=S)Nc2ccc(Br)cc2)cc1	1.5	10	0	0.9%	-0.2	-5
64	COC(=O)c1c(-c2ccccc2Cl)noc1-c1cnc(N)nc1C(F)(F)F	-0.4	-3	-7	0.6%	-0.8	-2
65	O=C(CSc1nnc(-c2ccccc2)n1CC1CCCO1)N1CCCC1 (configuration not stated)	-4.8	8	-5	-0.9%	0.1	2

Bioassay records (PubChem)
